# Source: PubChem BioAssay
# E coli growth: inhibitors of Escherichia coli growth; OD600, 23 h; stronger effect = lower value; OD600 absorbance (no concentration beside the values); actives 0.21% (n = 330,000);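 active = OD600 absorbance below the run mean of sample wells minus 3.6 SD, in any replicate, cut at about 0.56 in these data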;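 note: stock transfer was 300 nL into about 60 µL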
# UCH37 DUB inh: inhibitors of human deubiquitinating enzyme UCH37; Q9Y5K5; purified proteasome/UCH37, Ub-AMC cleavage fluorescence; inhibition, % (test concentration not listed); actives 0.33% (n = 330,000); AID 588478;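 active = mean of two replicates above 20%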;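 note: 0% = compound-free wells with enzyme and 100% = wells lacking proteasome; stock transfer was 100 nL into about 20 µL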
# Target sequence (Q9Y5K5 whole entry, looked up): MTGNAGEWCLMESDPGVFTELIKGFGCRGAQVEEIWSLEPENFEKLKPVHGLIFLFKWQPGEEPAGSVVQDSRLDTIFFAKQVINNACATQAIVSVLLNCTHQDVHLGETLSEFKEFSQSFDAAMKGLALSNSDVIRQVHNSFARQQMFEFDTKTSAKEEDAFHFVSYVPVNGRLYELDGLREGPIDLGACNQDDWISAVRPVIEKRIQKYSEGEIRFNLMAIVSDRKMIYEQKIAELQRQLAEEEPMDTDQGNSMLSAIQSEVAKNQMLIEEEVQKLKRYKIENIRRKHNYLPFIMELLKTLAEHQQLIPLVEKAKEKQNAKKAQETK
#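 System: Proteasome-associated human UCH37 deubiquitinase; Input: 0.15 nM proteasome in added enzyme buffer; Also added: Ub-AMC substrate from 1 µM stock; Incubation: 30 min compound-proteasome preincubation then 25 min substrate reaction, room temperature; Detection: fluorescence, ex 355 nm, em 460 nm; Read-out: % inhibition of Ub-AMC cleavage fluorescence; Benchmarks: no-proteasome and no-compound wells.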
# Bfl-1 A1 inh: inhibitors of the anti-apoptotic protein A1, read as caspase activation; actives 0.066% (n = 330,000); caspase activation, % (concentration not given with the values); MEF A1-2A-BIM cells, Caspase-Glo 3/7 luminescence, 3 h; percent of clofoctol response, vehicle zero; AID 2462;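 active = over half of replicate activation scores above 10%, or exactly half above 10 with the replicate mean above 10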;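 note: wells of about 30 µL received 50 nL stock; many hits fall short of the cut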
# T cruzi inh: blocks replication of Trypanosoma cruzi; T. cruzi beta-gal in NIH3T3, luminescence, 90 h; inhibition, % (no concentration beside the values); actives 1.4% (n = 300,000);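 active = mean inhibition across valid replicates above about 55%, limit read from the data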;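 note: signal also drops with host cell toxicity which is not excluded here; 0% = plate median of DMSO wells and 100% = zero luminescence signal; higher percent means less beta-gal luminescence so fewer parasites; stock transfer was 50 nL into about 50 µL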
# rRNA inh HTS: inhibits bacterial ribosomal RNA function over humanized ribosomes; actives 1.6% (n = 350,000); E. coli WT GFP vs humanized-ribosome RFP mutants, fluorescence, 24 h; stronger effect = lower value; DMSO median 0, no signal -100; GFP signal change (wild-type ribosome), % (concentration not given with the values);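 active = significant combined selectivity score with lowered wild-type GFP, culture density cut under 30%, mutant RFP and density less affected; inactive = any of these conditions unmet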; note: one replicate is shown; some compounds called inactive have numbers as strong as hits
# Beta cell apopt: beta cell apoptosis inhibition; INS-1E cytokine-induced death, ATP luminescence, 48 h; percent of positive-control rescue, neutral wells zero; protection from apoptosis, % (test concentration not listed); actives 0.8% (n = 300,000); AID 435005;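 active = all replicates at 75% or more, or half of them and the mean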;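 note: 0% = cytokine-treated negative control wells and 100% = positive control rescue; higher means more ATP so stronger rescue from cytokine killing; wells of about 40 µL received 100 nL stock; the first replicate is given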
# FGF22 binding: binders of recombinant human FGF22 by thermal shift | Q9HCT0 | SYPRO orange fluorescence; percent of sucrose octasulfate shift, DMSO zero | calls only at 9.99 µM | actives 1.5% (n = 340,000) | AID 651658;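 active = melting point raised past a set limit in the mean and every replicate; three in four hits are not shown here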
# Target sequence (Q9HCT0 whole entry, looked up): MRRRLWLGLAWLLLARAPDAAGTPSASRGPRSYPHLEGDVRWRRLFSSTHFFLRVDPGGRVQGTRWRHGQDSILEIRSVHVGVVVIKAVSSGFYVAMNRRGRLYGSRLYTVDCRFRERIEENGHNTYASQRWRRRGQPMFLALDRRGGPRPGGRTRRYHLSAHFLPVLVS
# MLL AF4-AF9 inh: MLL-AF4/AF9 protein interaction inhibition; inhibition, % at 10 µM; AlphaScreen, biotin-AF4 peptide binding to FLAG-AF9; AID 651704; P42568; actives 0.47% (n = 350,000);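 active = every replicate reaching a set inhibition limit, whatever the replicate mean, cut at about 25% in these data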;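 note: 0% = plate neutral control median and 100% = total signal loss; the record names both 10 and 1 µM as test concentration; the first replicate is given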
# Target sequence (P42568 whole entry, looked up): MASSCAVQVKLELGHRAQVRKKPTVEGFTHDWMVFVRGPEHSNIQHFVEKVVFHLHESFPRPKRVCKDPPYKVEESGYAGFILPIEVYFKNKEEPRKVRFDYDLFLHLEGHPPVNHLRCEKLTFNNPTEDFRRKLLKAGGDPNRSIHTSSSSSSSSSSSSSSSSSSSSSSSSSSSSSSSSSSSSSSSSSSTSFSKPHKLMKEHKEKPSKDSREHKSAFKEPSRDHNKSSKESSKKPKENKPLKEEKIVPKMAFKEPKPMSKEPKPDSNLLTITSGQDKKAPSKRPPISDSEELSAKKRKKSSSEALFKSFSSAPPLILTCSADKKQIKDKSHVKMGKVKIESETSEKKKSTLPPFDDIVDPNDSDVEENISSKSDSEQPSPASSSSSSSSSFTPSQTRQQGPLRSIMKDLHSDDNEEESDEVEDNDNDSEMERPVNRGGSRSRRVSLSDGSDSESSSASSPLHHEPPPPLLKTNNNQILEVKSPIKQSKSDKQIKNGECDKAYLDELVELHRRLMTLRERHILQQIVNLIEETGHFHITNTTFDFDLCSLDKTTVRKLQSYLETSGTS
# rRNA inh HTS OD600: recorded beside rRNA inh HTS, whose call it bears; OD600 change, %; measured here: OD600 growth;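 optical density of the mix in the first replicate; 0 = DMSO median and -100 = no signal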
# rRNA inh HTS RFP: further read-out of rRNA inh HTS, marked with its call; RFP signal change, %; measured here: RFP humanized mutant strains;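 first replicate; 0 = DMSO median and -100 = no signal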
# The depositor's hits bear a star; i = inactive; · = no result given.
no.	compound	E coli growth	UCH37 DUB inh	Bfl-1 A1 inh	T cruzi inh	rRNA inh HTS	rRNA inh HTS OD600	rRNA inh HTS RFP	Beta cell apopt	FGF22 binding	MLL AF4-AF9 inh
1	CC(C)[C@H](N)C(=O)NC[C@H]1O[C@@H](n2cnc3c(N)ncnc32)[C@H](O)[C@@H]1O	0.72	-0.5	·	·	6	1	-0.6	·	i	-4.6
2	CCOc1ccccc1N1CCN(C(=O)Nc2ccc(Cl)c(Cl)c2)CC1	0.65	1.6	-0.6	33	·	·	·	-1	·	·
3	CC1CCN(c2nc3ccccn3c(=O)c2C=O)CC1	0.65	11	1.9	-12	3	6	-2.8	-6	i	-1.6
4	Cc1ccc(C)c(CN2C(=O)NC3(CCCCCC3)C2=O)c1	0.63	1.1	-0.1	15	-7	-4	0.6	-6	i	-1.0
5	CCOc1ccc2nc(NC(=O)CSc3ccccc3)sc2c1	0.72	0.0	0.0	7	·	·	·	-8	·	·
6	CC/C(C)=N/NS(=O)(=O)c1ccc(C)c([N+](=O)[O-])c1	·	·	-0.8	-1	6	2	0.4	-10	i	-1.2
7	CCCNC(=O)c1ccc(N2CCC3(CC2)CC(c2ccccc2)=NO3)c([N+](=O)[O-])c1	0.72	-0.7	1.5	-11	-10	1	6.7	0	i	3.7
8	C#CCNCCS(=O)(=O)N(Cc1ccc(Br)cc1)[C@@H](C)C(=O)O	0.68	4.0	·	·	14	4	-3.6	·	i	-2.5
9	COCCNC(=O)CN(C(=O)Cn1nnc2ccccc21)c1cc(C)cc(C)c1	0.64	1.0	0.1	-4	-11	-8	-3.6	3	i	-0.6
10	CCNC(=O)CC1SC(=Nc2cccc3ccccc23)N(C)C1=O (centres undefined)	0.65	1.8	0.5	-4	1	-4	-0.1	-3	i	2.0
11	CC(C)(CNS(=O)(=O)c1ccc(Cl)cc1)N1CCCCC1	0.72	1.8	-0.2	15	7	4	0.8	0	i	-7.1
12	CCOCCCN(C(=O)c1snc(C(N)=O)c1N)C(C(=O)NC1CCCC1)c1ccc(O)c(OC)c1 (centres undefined)	0.65	-41	0.2	2	1	-1	4.5	4	·	0.3
13	CNC(=O)c1ccc2nc(NC(C)=O)sc2c1	0.68	0.7	-3.0	-15	12	8	4.1	3	i	5.2
14	O=C(NCC(c1ccco1)N1CCCC1)c1ccc(-n2cccn2)cc1 (centres undefined)	0.65	-0.1	0.9	·	6	8	12	-6	i	-0.4
15	CCO[C@H]1OC(C(=O)O)=C[C@@H](c2cn(C(C)=O)c3ccccc23)[C@@H]1CCCO	·	2.9	0.9	-3	·	·	·	-3	·	·
16	Cc1c(C)c2ccc(OCC(=O)N3CCC(C(=O)O)CC3)cc2oc1=O	0.71	-101	-1.0	-7	1	1	-1.8	-2	i	-0.7
17	COc1ccc(OC)c(C(=O)CSc2nnc(-c3cccnc3)n2C)c1	0.73	0.3	0.3	-2	·	·	·	3	·	·
18	O=C(NC1CCCc2ccccc21)C1CCCC1 (centres undefined)	0.69	-0.3	2.0	-20	6	9	-2.1	-1	i	-0.8
19	Cc1ccc(-c2nn(-c3ccccc3)cc2C(=O)Nc2cccc(S(=O)(=O)N3CCOCC3)c2)cc1	0.75	4.1	0.5	48	·	·	·	2	·	·
20	O=C(COC(=O)c1cc(=O)c2ccccc2o1)Nc1ccccc1F	0.67	0.7	0.0	·	4	6	-3.5	-3	i	1.0

# Reformatted: entries from further up
(1) CC(C)[C@H](N)C(=O)NC[C@H]1O[C@@H](n2cnc3c(N)ncnc32)[C@H](O)[C@@H]1O
(16) Cc1c(C)c2ccc(OCC(=O)N3CCC(C(=O)O)CC3)cc2oc1=O
assay / entry	1	16
E coli growth	0.72	0.71
UCH37 DUB inh	-0.5	-101
Bfl-1 A1 inh	·	-1.0
T cruzi inh	·	-7
rRNA inh HTS	6	1
rRNA inh HTS OD600	1	1
rRNA inh HTS RFP	-0.6	-1.8
Beta cell apopt	·	-2
FGF22 binding	i	i
MLL AF4-AF9 inh	-4.6	-0.7

# The listing picks up with the 3 entries that preceded the break.
no.	compound	E coli growth	UCH37 DUB inh	Bfl-1 A1 inh	T cruzi inh	rRNA inh HTS	rRNA inh HTS OD600	rRNA inh HTS RFP	Beta cell apopt	FGF22 binding	MLL AF4-AF9 inh
18	O=C(NC1CCCc2ccccc21)C1CCCC1 (centres undefined)	0.69	-0.3	2.0	-20	6	9	-2.1	-1	i	-0.8
19	Cc1ccc(-c2nn(-c3ccccc3)cc2C(=O)Nc2cccc(S(=O)(=O)N3CCOCC3)c2)cc1	0.75	4.1	0.5	48	·	·	·	2	·	·
20	O=C(COC(=O)c1cc(=O)c2ccccc2o1)Nc1ccccc1F	0.67	0.7	0.0	·	4	6	-3.5	-3	i	1.0
21	Cc1cc(Cl)ccc1NC(=S)NCCC(c1ccccc1)c1ccccc1	0.73	2.8	-1.7	31	·	·	·	7	·	·
22	COc1ccc(OC)c(Nc2cc(C(=O)NCCCN3CCOCC3)c3ccccc3n2)c1	0.68	2.9	0.0	14	·	·	·	0	·	·
23	CCc1ccc(N=c2c([N+](=O)[O-])nn(-c3ccccc3)n2O)cc1	0.68	-0.4	0.0	56*	·	·	·	-5	·	·
24	O=C(COc1ccc(/C=N/NC(=O)c2ccncc2)cc1)Nc1cccc([N+](=O)[O-])c1	·	·	0.1	-5	-7	7	1.3	-5	i	0.1
25	O=C(Nc1nnc(-c2ccccc2F)s1)C1CCN(S(=O)(=O)c2ccc(Cl)cc2)CC1	0.71	0.5	-0.5	-5	6	12	2.5	-3	i	2.5
26	CCC(C)NCCOCCOc1ccc(C)cc1OC (centres undefined)	0.7	2.2	-0.4	8	·	·	·	-1	i	2.5
27	Cc1ccc(OCC(=O)NS(=O)(=O)c2ccccc2)cc1	0.68	0.6	-0.6	4	-3	5	-2.9	0	i	-2.0
28	COc1ccccc1CN(C)CC(=O)Nc1ccc(Cl)cc1F	0.66	3.1	0.7	0	-44	-67	-5.7	2	·	6.2
29	C/C(CCCO)=N/Nc1ccc([N+](=O)[O-])cc1[N+](=O)[O-]	·	·	0.8	10	14	8	1.3	10	i	0.4
30	O=C(COC(=O)C1CCN(c2ccc(C(F)(F)F)cn2)CC1)NCCc1ccccc1	0.71	2.2	-1.2	7	-4	1	0.3	-2	i	-2.9
31	COC(=O)COc1cccc(NC(=O)c2ccc(Cl)cc2)c1	0.69	1.2	-0.2	-5	3	6	-2.0	-6	i	-0.2
32	Cc1ccc(C)c(-n2c(-c3ccncc3)n[nH]c2=S)c1	0.62	5.2	-1.0	-2	-1	1	-4.1	·	i	-5.0
33	CC(=O)c1nnn(-c2cccc(C#N)c2)c1C	0.69	-0.8	0.0	-35	-5	2	6.9	·	i	-1.3
34	O=C(COc1ccccc1)Nc1nnc(-c2ccccc2Cl)o1	·	·	-0.2	8	-9	-27	-1.3	1	i	-0.6
35	O=C(NCCc1ccc(F)cc1)N1CCOCC1	0.67	1.5	0.3	-1	·	·	·	-2	·	·
36	CC(=O)Nc1ccc(-c2csc(NC(=O)CN3C(=O)NC4(CCCC4)C3=O)n2)cc1	0.7	0.7	-0.4	-3	-3	4	-1.6	-4	i	4.2
37	COc1cc(NC(=O)C2CCCN2C(=O)OCc2ccccc2)cc(OC)c1 (centres undefined)	0.77	1.7	-0.2	0	·	·	·	0	·	·
38	Brc1ccc(CSc2ccc3nnc(-c4cccnc4)n3n2)cc1	0.73	-2.4	0.3	25	12	-14	-3.2	14	i	-0.4
39	Cc1cc(NC(=O)Cn2nc(-c3ccccc3F)ccc2=O)ccc1-n1cnnn1	0.69	-0.4	-0.5	7	·	·	·	3	·	·
40	Cc1nc2cc(N3CCOCC3)c(NC(=O)C3CC3)cc2c(=O)n1Cc1ccccc1	0.7	2.0	1.0	7	·	·	·	-5	·	·
41	CCOC(=O)[C@H]1[C@H]2COc3ccccc3[C@@H]2N2C(=O)CN(Cc3ccc(C)cc3)C(=O)[C@@]12C	·	-0.9	0.7	·	30	-16	0.9	-6	i	3.7
42	CCCCC(NC(=O)Cc1c(C)c2cc3c(-c4ccccc4)coc3c(C)c2oc1=O)C(=O)O (centres undefined)	0.69	-2.1	1.8	-9	-14	-16	-3.5	-5	i	-13
43	Nc1nc(SCc2ccc(Cl)c(Cl)c2)n[nH]1	0.64	1.2	0.0	-6	-37*	-34*	-6.3*	-10	i	-3.6
44	CCCN1CCN(CCCNC(=O)Cn2nc(C)n3c(cc4cc(F)ccc43)c2=O)CC1	0.66	-3.8	1.8	-10	11	20	2.6	-5	i	-0.8
45	COc1ccc2c(c1OC)C(=O)N1C2SC(C)(C)[C@H]1C(=O)NCC(C)C (some centres undefined)	0.65	-20	0.5	-2	10	9	3.9	-3	i	1.5
46	CC1(C)Cc2c(cnn2-c2ccccc2)C(NC(=O)CCN2CCCC2=O)C1 (centres undefined)	0.71	5.2	0.6	-3	6	7	1.0	-6	i	-0.9
47	CCN(CC)c1ccc(/C=C2\CCC(/C=C(/C#N)C(=O)Nc3ccccc3F)=C2N2CCOCC2)cc1	0.86	8.9	·	·	8	6	41	·	i	-1.9
48	CC(C)c1[nH]c(=O)c(C#N)c2c1CSC(C)(C)C2	0.69	-7.6	-0.5	6	·	·	·	-1	·	·
49	COc1ccc(/C=C/c2c(-c3ccc(OC)cc3)oc(=O)c3cc(OC)c(OC)cc23)cc1	·	-25	-0.6	·	-4	-2	-7.4	6	i	1.8
50	COC(=O)[C@]1(Cc2ccccc2)N[C@H](CN(C)C(C)=O)[C@@H]2C(=O)N(Cc3ccccc3)C(=O)[C@@H]21	0.71	5.4	·	·	11	12	1.2	·	i	-12
51	O=C(OCc1nc2ccc(Cl)cc2n1CCO)c1ccc2c(c1)OCO2	0.69	3.0	-0.4	-13	·	·	·	0	·	·
52	CCOc1ccccc1NC(=O)Cn1nnc(C(=O)Nc2ccc(C)cc2)c1N	0.73	-0.9	-0.6	7	·	·	·	3	·	·
53	COc1ccc(C(C(=O)NC2CCCCC2)N(C(=O)c2ccco2)c2ccc(-n3cnnn3)c(C)c2)cc1 (centres undefined)	0.7	1.2	-0.1	-3	·	·	·	-5	·	·
54	Cc1ccc(S(=O)(=O)NCc2cccnc2)cc1	0.67	3.7	-0.1	-5	1	2	-3.4	-2	i	-0.2
55	Cn1c(C(=O)N2CCC(C(N)=O)CC2)cc2c(=O)n(C)c3ccccc3c21	0.69	3.6	-0.6	-4	8	15	-1.9	-8	i	-0.9
56	O=C(CSc1ncnc2c1oc1ccccc12)NC1CCCC1	0.68	0.5	-0.5	10	3	5	-3.3	7	i	0.2
57	O=c1[nH]c(CSc2ncnc3sc(-c4ccccc4)cc23)nc2ccccc12	0.71	-3.9	-0.4	24	1	8	-3.1	28	i	3.6
58	O=C(COC(=O)c1cc(=O)[nH]c2ccccc12)NC1CCCCCCC1	0.74	-18	-0.1	-9	0	-2	-4.2	-1	i	-0.2
59	CCOc1ccc(-c2cccc(NC(=O)c3ccco3)c2)nn1	0.68	3.8	-0.3	-5	2	1	1.6	4	i	-1.5

# Some of the compounds tested; the hit share may differ from the screen's.
